From PubChem
Mtb hypoxia rep – PubChem AID 1159583; fluorescence inhibition, % (no concentration beside the values); 0.1% of 300,000 active; M. tuberculosis hypoxia-regulated fluorescent reporter, fluorescence;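 active = 35 to 45% if threefold the growth effect, above 45% if 1.5-fold the growth effect; inactive = the rest, general growth blockers included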;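 also: wells of about 50 µL received 100 nL stock; 0% = vehicle wells and 100% = reference inhibitor wells; whole bacteria with a GFP reporter of the hypoxia response; strong numbers were not always called active; many hits fall short of the cut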
Bead autofluor – counter-screen for toxin protease inhibitors: compound fluorescence | compound autofluorescence counterscreen, microsphere flow cytometry; active compounds read high | fluorescence intensity (no concentration beside the values) | 3.1% of 360,000 active | AID 624483;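 active = at least 3 SD above the mean of all compounds, about 16000 in these data; inconclusive = too few beads counted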;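 also: 100 nL of 1 mM stock went into each well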
RN4220 kill – growth inhibition of S. aureus RN4220, primary screen, OD600 | 0.33% of 330,000 active | AID 1259311, 2017 | 16 h | inhibition, % (no concentration beside the values);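 active = z-score of -3 or lower and OD600 up to 0.18 on both plates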;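 also: plate controls were untreated cells for no effect and reference antibiotic for full effect; stock transfer was 100 nL into about 80 µL; one replicate is shown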
Sa ugtP lethal – growth inhibition of ugtP-null S. aureus, primary screen, RN4220 ugtP deletion, OD600 | 16 h; some inactives read as strong as hits | growth inhibition, % (no concentration beside the values) | 0.54% of 330,000 active;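 active = z-score under -3 and OD600 up to 0.15 on both plates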;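 also: plate controls were untreated wells for no effect and antibiotic for full effect; wells of about 80 µL received 100 nL stock; the first replicate is given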
PrP UTR inh – inhibition of PrP 5' UTR reporter expression; 0.35% of 340,000 active; cell-based PrP 5' UTR mRNA reporter, plate reader; inhibition, % (concentration not given with the values);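 active = every replicate at 50% or more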;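 also: 0 = median of the neutral control wells; tested in H4 reporter cells; numbers are from one replicate; inactives centre near -14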
BJeLR viability – MLPCN primary cell-based screen for lethality selective to Ras in HRASV12 cells | AID 1554, 2009 | BJeLR (HRASV12) viability, CellTiter-Glo ATP luminescence, 48 h; reference of the scale not given here | inhibition, % (test concentration not listed) | 0.17% of 300,000 active;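 active = replicate mean above 50%; inconclusive = above 50% but judged a plate artefact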;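 also: 50 nL library stock added to about 25 µL; numbers are from one replicate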
Mtb hypoxia rep growth – second read-out of Mtb hypoxia rep, no call of its own (marks repeat the call); growth inhibition, %; measured here: M. tuberculosis growth (absorbance);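 0% = vehicle and 100% = reference antibiotic; read after six days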
* hit, by the source's call; ? = inconclusive; · = no result given. Hits appear at their usual frequency. About 4% of those tested had a hit in this group.

SMILES	Mtb hypoxia rep	Mtb hypoxia rep growth	Bead autofluor	RN4220 kill	Sa ugtP lethal	PrP UTR inh	BJeLR viability
CC(C)Cn1c(SC(C)C(=O)NC2CC2)nnc1-c1ccccc1F (stereo not drawn)	3	2	4014	1.1	-5	·	·
Cc1ccc(C2CC(c3ccc(F)cc3)Nc3nc(N)nn32)cc1 (stereo not drawn)	·	·	4457	0.2	2	-13	10
COc1ccc(Cl)cc1NC(=O)CCN1C(=O)C2C3CCC(C3)C2C1=O (stereo not drawn)	8	4	4970	2.6	3	0	2
Cc1onc(-c2ccccc2)c1C(=O)Nc1ccc(-c2nnc3n2CCCCC3)cc1	·	·	3487	2.4	5	-4	-2
CCOc1ccc(CCNC(=O)CN2C(=O)NC3(CCCc4ccccc43)C2=O)cc1OCC (stereo not drawn)	6	3	4891	3.2	2	-6	-4
CSc1n[nH]c(NCc2ccc(C)cc2)n1	0	-4	9220	-3.6	0	-16	3
COc1ccc(C)cc1NC(=O)C(Sc1nnc(Nc2ccccc2F)s1)c1ccccc1 (stereo not drawn)	0	1	2126	0.6	-19	-19	10
Cc1cc(C)cc(NC(=S)NCCc2ccc(S(N)(=O)=O)cc2)c1	·	·	2661	·	·	-13	0
O=C(NC(c1ccccc1)c1ccccc1)c1ccc(Br)o1	3	-3	3571	3.9	9	5	0
C=C(C)CNC(=S)NN=Cc1ccco1	18	3	·	2.7	3	·	·
C=CCn1c(SCCC(=O)O)nc2c1c(=O)n(C)c(=O)n2C	-9	0	10967	-1.9	-5	-31	-8
CCOC(=O)c1c(-c2cccs2)csc1NC(=O)CN1CCOCC1	13	-2	2942	9.2	7	1	-3
Nc1ncnc2c1C1(CCCCC1)Cc1ccccc1-2	9	-6	4289	5.4	-4	-7	10
CCOC(=O)c1ccc(S(=O)(=O)N2CCN(CC(O)COc3cccc(C(C)=O)c3)CC2)cc1 (stereo not drawn)	-14	-5	3773	-4.3	-3	-20	-3
COc1ccc(S(=O)(=O)N2CCOC2CNC(=O)C(=O)NCC(C)C)cc1OC (stereo not drawn)	1	0	?	-0.2	4	-20	-1
CCN(CC)S(=O)(=O)c1ccc(C(=O)Nc2cc(S(=O)(=O)N3CCOCC3)ccc2O)cc1	-9	2	5673	2.7	-2	-15	·
CCN(CC)S(=O)(=O)c1ccc(C(=O)NC2CN3CCC2CC3)cc1 (stereo not drawn)	-9	3	3968	-0.6	-1	-17	-3
O=C(Nn1c(-c2ccncc2)nc2ccccc2c1=O)c1ccccc1Br	-1	-13	4208	9.9	0	-6	6
COc1ccc(C=NNC(=S)Nc2ccccc2)cc1COc1ccc(Br)cc1	-5	3	·	3.4	21	·	·
CC(NC1CCN(Cc2ccccc2)CC1)c1ccc(F)cc1 (stereo not drawn)	13	0	5301	0.5	-1	-33	-1
O=C(CSc1nc2c(cnn2-c2ccccc2)c(=O)[nH]1)NCC1CCCO1 (stereo not drawn)	13	12	3804	1.1	4	-21	·
Cn1c(Cn2c(=O)sc3ccccc32)nnc1SCC(=O)N1CCOCC1	·	·	5622	-1.1	5	-20	0
CN1C(=O)N2CN(C3CCCCC3)CN3C(=O)N(C)C1C23 (stereo not drawn)	6	6	9708	1.5	-1	·	-16
Cc1nonc1C(=O)NN=Cc1ccc(O)cc1O	11	-7	·	10	8	·	·
O=C1c2cc(O)c(O)cc2OC(c2ccc(O)c(O)c2)C1O (stereo not drawn)	17	7	3623	5.1	0	-11	·
Cc1ccccc1S(=O)(=O)/N=C(/c1ccccc1)N(C)C	·	·	6122	·	·	-4	-5
O=C(CCNC(=O)c1ccccc1)NCCc1ccc(Cl)cc1	-3	2	3849	-1.0	0	·	3
CCc1cc(-c2n[nH]c(=S)n2-c2ccccc2C)cs1	7	5	10196	2.3	8	4	-13
CC(=O)N1CCc2c(sc(NC(=O)CN3C(=O)c4ccccc4C3=O)c2C(N)=O)C1	10	6	4342	4.0	11	-33	-8
CCCc1cc(=O)n2[nH]c(NC(=O)c3ccco3)nc2n1	-24	-8	?	1.4	4	0	-10
COc1ccc(Cc2nnc(NC(=O)C(C)(C)C)s2)cc1	8	1	4268	6.3	0	-23	3
O=C(CCc1ccccc1)Nc1nccs1	6	-3	3481	1.9	6	-30	-12
CC(=O)Nc1sc2c(c1C(c1ccccc1Cl)N1CCN(CCO)CC1)CCCC2 (stereo not drawn)	·	·	5482	2.0	2	-23	-1
O=C(Nc1cccnc1)c1ccc2snnc2c1	5	4	3130	4.0	-1	-31	-6
Cc1cccc(C(=O)N[C@H](C(=O)Nc2ccc3c(c2)OCO3)C(C)C)c1	14	9	3014	4.2	6	-8	·
O=C(CCN1CCC(c2ccc(Cl)s2)=N1)c1ccc(Cl)s1	8	0	3742	4.4	12	·	-3
COc1ccc(NC(=S)N2CCN(C/C=C/c3ccccc3)CC2)c(OC)c1	13	6	2659	2.9	3	-4	-10
CCCCN1CC(C)C(CC(=O)NCc2ccccc2)C1=O (stereo not drawn)	11	18	·	3.0	1	·	·
CC(C)CC(NC(=O)C1CCCN1C(=O)C(N)Cc1ccc(O)cc1)C(=O)NCC(N)=O (stereo not drawn)	0	8	·	8.3	0	·	·
CCCN(CC)c1ncnc2[nH]ncc12	7	9	3668	7.5	4	5	·
COC(=O)C1=C(C(=O)OC)[C@@H]2N(Cc3ccccc3)c3ccccc3[C@@]23C[C@@H](C(=O)OC)N=C3N1	·	·	4173	·	·	-12	-9
C=CCN(C)NC(=S)Nc1ccccc1	5	0	2391	1.5	4	-14	-3
Cc1cc(S(=O)(=O)Nc2cccc(O)c2)c(C)s1	·	·	·	-3.6	-3	3	10
C=C(C)COc1ccc(-c2ncnc(C(F)(F)F)c2-c2ccccc2)c(O)c1	9	9	3572	-0.8	23	-8	7
Cc1nc2ccccn2c1C(=O)N/N=C/c1ccc(F)cc1	·	·	3012	·	·	-16	-1
CCOC(=O)CC1ON(C)C(=O)N1c1ccc(Cl)cc1Cl (stereo not drawn)	·	·	2614	-6.3	-24	-8	0
COc1ccc(F)cc1C(=O)C1CCCN(C(=O)CCN2CCCCO2)C1 (stereo not drawn)	4	-4	3347	4.0	5	-22	6
COc1ccc(F)cc1C(=O)C1CCCN(Cc2c[nH]c3ccccc23)C1 (stereo not drawn)	-9	4	2385	-4.5	-6	-33	5
CCOc1ccc(NS(=O)(=O)c2ccc(C(=O)N3CC(C)OC(C)C3)cc2)cc1 (stereo not drawn)	-3	-12	8264	1.6	-1	-11	·
CC(=O)N1N=C(c2ccc([N+](=O)[O-])cc2)CC1c1ccccc1Cl (stereo not drawn)	-2	-2	3451	-1.1	-6	-23	4
CCN(CC(=O)Nc1ccccc1C(F)(F)F)C(=O)C1CCC1	9	3	5000	1.9	3	-12	2
O=S(=O)(NCC(c1ccco1)N1CCN(c2ccc(F)cc2)CC1)c1ccc2c(c1)OCCO2 (stereo not drawn)	10	12	2428	-0.4	77	-22	11
CC(=O)c1ccc(N2CCN(C(=O)c3ccc(Cn4c(=S)[nH]c5ccc(N6CCOCC6)cc5c4=O)cc3)CC2)cc1	11	12	5475	7.5	7	-28	15
O=C(NCCC(c1ccccc1)c1ccco1)c1cccs1 (stereo not drawn)	13	12	4067	5.8	9	-40	2
O=C(Nc1nnc(SCc2ccc(Cl)cc2)s1)c1cnccn1	11	7	2763	0.4	2	-12	2
CN1CCCN(C(=O)CSc2ccccc2)CC1	6	4	3246	3.5	6	-11	3
CCCCOC(=O)/C(=C\c1ccc([N+](=O)[O-])o1)NC(=O)c1ccccc1	·	·	2943	10	-3	-16	-3
NC(=O)NNC(=S)Nc1cccc2ccccc12	-5	1	3973	1.3	6	-30	7
Cc1nc2ccccc2nc1OCC(=O)Nc1ccccc1	-2	2	4191	2.4	5	-2	9
Cc1ccc(C(=O)N2CCCC2)cc1S(=O)(=O)Nc1cccc(C)c1C	14	8	4758	8.0	1	-3	-6
More compounds:
SMILES	Mtb hypoxia rep	Mtb hypoxia rep growth	Bead autofluor	RN4220 kill	Sa ugtP lethal	PrP UTR inh	BJeLR viability
Cc1nnc(SCC(=O)Nc2ccc3c(c2)OCCO3)n1N	13	2	3173	4.5	5	-15	-3
CCSc1nnc(NC(=O)c2c(-c3ccccc3Cl)noc2C)s1	·	·	2892	12	3	-17	8
CC(=O)c1cc2c(cc1NC(=O)CN1CCCCCCC1)OCO2	-9	-4	3921	0.2	-9	-6	-8
O=C(OCCN1CCOCC1)c1ccc(Cl)cc1Cl	12	-1	4297	2.0	4	-19	-18
CN1CCc2c(sc(N=Cc3cccs3)c2C(N)=O)C1	-10	7	·	-2.2	-8	·	·
COC(=O)c1cc(S(=O)(=O)N2CCN(c3ccccc3OC)CC2)cn1C	-2	-3	5933	2.2	3	-12	5
COc1ccc(NC(=O)CN(C)C(=O)CNC(=O)c2sc3ccccc3c2Cl)cc1	8	9	5211	-0.2	2	·	·
O=[N+]([O-])c1cc(O)c2ncccc2c1	6	11	·	45	19	·	20
Cc1cccc(-n2ccnc2SCC(=O)N2CCCc3ccccc32)c1C	14	7	2042	12	6	-6	9
Cc1ccc(C(=O)NC(Cc2cccc(F)c2)C(=O)O)cc1 (stereo not drawn)	-2	-1	2949	4.9	9	-3	·
NC(=O)CSc1nnc(NC(=O)c2cccc(S(=O)(=O)N3CCCCC3)c2)s1	7	0	4817	4.1	10	-22	6
Cc1[nH]c2ccc(C(=O)Nc3ccncc3)cc2c1C	10	-3	3189	3.9	7	-17	5
CC(=C1C(=O)c2ccccc2C1=O)N1CCN(CCN=Cc2c(O)n(C)c(=O)n(C)c2=O)CC1	·	·	3496	3.3	3	-12	6
Cn1ncc(Cl)c1C(=O)N1CCN(c2ccc(F)cc2)CC1	9	-20	5011	-0.2	7	-5	-6
COc1ccc(CCNC(=O)C2CCN(C(=O)c3ccc(Br)cc3)CC2)cc1OC	10	1	3834	2.7	7	-30	-2
Cc1nnc(SCCOC(N)=O)n1C	2	3	20927*	6.0	6	-9	6
CC(=C\c1ccccc1)/C=C1/SC(=O)N(CCCC(=O)Nc2ccc(C(=O)O)cc2)C1=O	-6	5	3824	16	17	-14	2
Cc1nc2c(C#N)c(-c3ccc(Cl)cc3)ccn2n1	7	5	3726	7.5	4	-5	-2
O=C(Nc1nnc(Cc2ccc([N+](=O)[O-])cc2)s1)c1ccc2c(c1)OCO2	9	-2	4381	3.5	0	11	5
O=C(NCCc1ccccc1)c1ccc(NC2=NC3CS(=O)(=O)CC3S2)cc1 (stereo not drawn)	1	0	5121	-7.0	10	-3	-23
CCOC(=O)C1(Cc2ccccc2)CCCN(S(=O)(=O)N(C)C)C1 (stereo not drawn)	0	11	3495	3.0	4	-6	6
COc1cc(OC)cc(-c2nnc(SCC(=O)N3CCOCC3)o2)c1	·	·	4761	2.3	-1	-11	6
COc1ccc(C=Nn2c(=O)[nH]c3c([nH]c4ccc(F)cc43)c2=O)cc1CN1CCCCC1	7	2	·	1.7	6	·	·
c1ccc2c3n(nc2c1)CCCO3	15	14	4140	3.9	-12	-27	·
CCC(=O)N1CCNC(=O)C1CC(=O)Nc1ccc(C)c(Cl)c1 (stereo not drawn)	·	·	4258	1.7	3	-3	-3
CC1CCC(NC(=O)c2ccc(N3CCCC3=O)cc2)CC1 (stereo not drawn)	5	-2	21776*	-2.5	0	-55	-1
COC(=O)Cn1cnc2c(cnn2-c2ccc(C)cc2)c1=O	4	1	3746	3.0	6	-18	0

Some of these compounds in order of number of heavy atoms, descending.
SMILES	Mtb hypoxia rep	Mtb hypoxia rep growth	Bead autofluor	RN4220 kill	Sa ugtP lethal	PrP UTR inh	BJeLR viability
CC(=C\c1ccccc1)/C=C1/SC(=O)N(CCCC(=O)Nc2ccc(C(=O)O)cc2)C1=O	-6	5	3824	16	17	-14	2
COc1cc(OC)cc(-c2nnc(SCC(=O)N3CCOCC3)o2)c1	·	·	4761	2.3	-1	-11	6
CC1CCC(NC(=O)c2ccc(N3CCCC3=O)cc2)CC1 (stereo not drawn)	5	-2	21776*	-2.5	0	-55	-1
Cc1nnc(SCCOC(N)=O)n1C	2	3	20927*	6.0	6	-9	6

A few values from above.
`CCOC(=O)C1(Cc2ccccc2)CCCN(S(=O)(=O)N(C)C)C1` (stereo not drawn) | Bead autofluor: 3495
`COc1cc(OC)cc(-c2nnc(SCC(=O)N3CCOCC3)o2)c1` | Sa ugtP lethal: -1
